TRPML1 inh: inhibitors of human TRPML1 channel. Q9GZU1. TRPML1-inducible cells, Ca2+ dye fluorescence, FDSS; active compounds read low; inhibition of EC80 agonist-evoked calcium signal. activity change, negative = inhibition, % (concentration not given with the values). hit rate 0.02% among 390,000; in the data active means activity change below about -50%; inconclusive means about -30% to -50%; inactive means above about -30%;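 note: stimulus is agonist 54-4 at its EC80 concentration; % is set by controls: 0 for no effect and ±100 for the full control effect; the text of the record puts the active cut at -80%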
Target sequence (Q9GZU1 whole entry, looked up): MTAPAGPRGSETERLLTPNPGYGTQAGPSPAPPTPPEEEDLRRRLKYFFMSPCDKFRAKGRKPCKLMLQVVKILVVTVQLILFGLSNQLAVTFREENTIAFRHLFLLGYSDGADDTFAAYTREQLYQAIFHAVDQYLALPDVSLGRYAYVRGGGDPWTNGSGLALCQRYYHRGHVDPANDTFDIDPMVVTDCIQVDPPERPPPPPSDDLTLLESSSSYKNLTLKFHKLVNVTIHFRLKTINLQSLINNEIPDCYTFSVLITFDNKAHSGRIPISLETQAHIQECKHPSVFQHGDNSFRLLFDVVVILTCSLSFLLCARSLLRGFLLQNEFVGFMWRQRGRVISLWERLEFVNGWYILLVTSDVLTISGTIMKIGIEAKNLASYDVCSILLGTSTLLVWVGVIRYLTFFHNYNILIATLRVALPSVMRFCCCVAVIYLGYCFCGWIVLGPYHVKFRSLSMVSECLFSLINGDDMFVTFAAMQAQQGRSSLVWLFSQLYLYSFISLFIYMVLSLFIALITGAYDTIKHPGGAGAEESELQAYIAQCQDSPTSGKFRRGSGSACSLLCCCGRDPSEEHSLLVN
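Calcium fluorescence in TRPML1-DL cells induced overnight with Tet: a 110 s read after compound pin addition, then a 110 s antagonist read after challenge with 54-4 at 4 uM final (EC80).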
ClpP mod: qHTS Assay for Activators of ClpP; hit rate 1.9% among 340,000; AID 651965, 2013; Potency, µM (series often up to 57.5 µM), for inactives: top-dose activity change, negative = active; purified B. subtilis ClpP, FRET peptide cleavage, 20 min; active = well fitted falling curve with a large enough effect; inconclusive = small, poorly fitted or top-dose-only effect; inactive = no such curve, though single readings can be large or run the other way; note: potency is the fitted concentration of half-maximal effect; the source files actives as falling curves though it sought activators and does not explain the sign; nearly all actives have a fitted effect of over 65% in size; many hits overshoot -100%
Target sequence (P80244 whole entry, looked up): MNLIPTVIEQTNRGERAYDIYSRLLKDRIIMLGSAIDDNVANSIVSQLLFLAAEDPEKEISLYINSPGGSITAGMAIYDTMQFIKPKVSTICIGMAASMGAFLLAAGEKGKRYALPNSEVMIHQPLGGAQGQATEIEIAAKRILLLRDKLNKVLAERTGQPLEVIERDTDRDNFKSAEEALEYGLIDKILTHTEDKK
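Purified B. subtilis ClpP, 10 microg/mL final in Tris/HCl pH8 with KCl, BSA, glycerol and Tween-20, cleaved an Abz/nitrotyrosine-quenched decapeptide. Fluorescence (ex 320, em 430) was read at 0 and 20 min at room temperature. Delta was normalized to 5.8 microM ADEP and DMSO/no-enzyme controls.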
* = called active by the depositor; ? = inconclusive.

SMILES | TRPML1 inh | ClpP mod
O=C(NC1CC(=O)N(c2ccc(F)cc2)C1)C(c1ccccc1)c1ccccc1 (stereo not drawn) | -18 | 0.8%
O=C(CCc1nnc2n(Cc3ccccc3Cl)c(=O)c3ccccc3n12)Nc1ccc(F)c(F)c1 | 9 | -2.1%
Cc1nc2ccc(S(=O)(=O)NCC(=O)Nc3ccc(C)c(Cl)c3)cc2s1 | -20 | 0.0%
CN1CCN(C(=O)c2cc3c(c(-c4cccc(Br)c4)n2)[C@@H](CCO)N(S(=O)C(C)(C)C)C3)CC1 (stereo partly drawn) | -18 | -1.0%
CCC1CN(C(=O)N2CCC(C(=O)NCc3cccc(C)c3)CC2)c2ccccc2O1 (stereo not drawn) | 19 | 0.0%
Cc1ccc(CNC(=O)CSC2=Nc3ccccc3C3=NC(C)C(=O)N23)cc1 (stereo not drawn) | 1 | 4.3%
CCCCNC(=O)C1CCC(Cn2c(=O)c3sccc3n(Cc3ccccc3)c2=O)CC1 (stereo not drawn) | 7 | 0.6%
COc1ccc(NC(=O)c2oc3ccccc3c2NC(=O)c2cccc(F)c2)c(OC)c1 | -30 | ?
CCOc1ccc(-c2nonc2NC(=O)c2ccccc2C)cc1 | 7 | 0.2%
CCc1ccc(NC(=O)c2ccc(F)c(S(=O)(=O)N3CCN(c4ccc(OC)cc4)CC3)c2)cc1 | -7 | -0.5%
CCOC(=O)C1CCC(CN(Cc2cccc(Br)c2)S(=O)(=O)c2ccc(C)cc2)CC1 (stereo not drawn) | -21 | -5.6%
CCOc1nc(-c2ccccc2)ccc1-c1noc(-c2ccc(C)cc2)n1 | 23 | -18%
OC[C@@H]1CN(Cc2ccccc2)C[C@H](n2cnc3c(NC4CC4)ncnc32)O1 | 13 | -0.9%
Cc1cccc(NC(=O)c2c(NC(=O)c3ccccc3)sc3c2CCC3)c1 | 1 | -4.3%
Cc1ccc(C)c(N2CCN(CCCNc3ncnc4onc(-c5ccc(Cl)cc5)c34)CC2)c1 | -16 | -0.7%
CCc1cccc(CC)c1NC(=O)c1cc(S(=O)(=O)N2CCc3ccccc32)cn1C | -3 | -0.6%
Cc1ccccc1-c1noc(-c2cc(-c3ccc(F)cc3)n[nH]2)n1 | -23 | 1.4%
CCOc1cc(C(=O)N2CC(=O)Nc3ccc(F)cc3C2c2ccccc2)cc(OCC)c1OCC (stereo not drawn) | 20 | -3.2%
COc1ccc(NC(=O)c2[nH]nc3c2CSc2ccccc2-3)c(OC)c1 | -10 | 3.9%
COc1cccc(CNC(=O)c2ccc(-c3nc(CS(=O)c4ccccc4)c(C)o3)cc2)c1 (stereo not drawn) | 10 | -17%
CCOC(=O)C1=CCN(S(=O)(=O)c2ccccc2C)C1c1ccc(F)cc1 (stereo not drawn) | 21 | -1.6%
Cc1cccc(CNC(=O)C2CCN(c3nnc(-n4c(C)ccc4C)s3)CC2)c1 | -3 | 8.7%
CCOc1ccc(-c2cc(OC(=O)c3ccccc3)c3c(C)oc(C)c3c(=O)c2)cc1 | -2 | -0.2%
COc1ccccc1CNC(=O)C(=O)NCC(c1cccs1)S(=O)(=O)c1ccccc1 (stereo not drawn) | 7 | 0.0%
CN(Cc1ccc(C(F)(F)F)cc1)C(=O)[C@H]1O[C@@H](n2cnc3c(N)ncnc32)[C@H](O)[C@@H]1O | -10 | -1.4%
COc1cccc(CNC(=O)CCc2c(C)nn(-c3ccc(N4CCCC4)nn3)c2C)c1 | 6 | -2.0%
CC(C)=CCC[C@H](C)C[C@@H]1CC2=C(C(=O)OC(C)(C)O2)[C@H](c2ccc(Cl)cc2)O1 | 47 | -0.9%
Cc1ccccc1OCCSc1nc2ccc(NC(=O)c3ccccc3)cc2s1 | -7 | 0.1%
Cc1ccc(Nc2c(-c3ccccn3)nc3ccc(Br)cn23)cc1 | 6 | -1.0%
COc1ccc2cc(CNc3ccccc3)c(=O)n(CC(=O)Nc3ccc(C)cc3C)c2c1 | -3 | -1.8%
Cc1cc2ccccc2n1CCNC(=O)c1cc(C(F)(F)F)cc(C(F)(F)F)c1 | -8 | -9.7%
Cc1cccc(N2CCN(C(c3ccccc3)c3nnc(-c4ccccc4Cl)o3)CC2)c1C (stereo not drawn) | -7 | -1.2%
CC1CCN(c2oc(-c3cccs3)nc2S(=O)(=O)c2ccccc2)CC1 | 6 | -2.6%
Cc1ccc(NC(=O)C2CCCN(S(=O)(=O)c3c(C)nn(C)c3C)C2)c(C)c1 (stereo not drawn) | 20 | 0.0%
COc1ccc(OCc2ccc(-c3nc(C#N)c(N4CCN(c5cccc(Cl)c5)CC4)o3)o2)cc1 | 0 | 3.5µM*
CCOC(=O)C1CCN(C(=O)C2CCN(C3=NS(=O)(=O)C(c4ccc(C)cc4)=C3CC)CC2)CC1 | -4 | 1.5%
O=C(NCc1ccccc1)c1ccc(NC(=O)N2CC3CCCN3c3ccccc32)cc1 (stereo not drawn) | 17 | -1.9%
COc1cccc(C(=O)NCc2ccc3c(c2)CCN3C(=O)c2ccncc2)c1 | 24 | 0.6%
COc1cccc(CNC(=O)Cn2ncc3c4ccccc4n(C)c3c2=O)c1 | -12 | -15%
CCc1ccc2ncc(C(=O)c3ccc(C)c(C)c3)c(N3CCC(C(N)=O)CC3)c2c1 | -4 | 2.4%
CC(=O)c1ccc(N2CCN(C(=O)CCCCn3c(=O)[nH]c4ccsc4c3=O)CC2)cc1 | -7 | -3.5%
CCn1c(CNC(=O)c2ccc(OC)cc2)nnc1SCC(=O)Nc1cccc(C)c1C | -4 | -8.2%
COc1ccc(Br)cc1CNC(=O)CSc1n[nH]c(-c2ccccc2)n1 | -17 | 0.2%
CCOC(=O)c1cc(OC(=O)c2cccc(Cl)c2)n(-c2ccccc2)n1 | -2 | -4.3%
CCOCCCn1c(=N)c(C(=O)NC2CCCCC2)cc2c(=O)n3ccccc3nc21 | -12 | 4.3%
COc1ccc(NC(=O)CCCn2nc(C)c3sc4ccccc4c3c2=O)cc1 | -21 | -1.0%
COC(=O)c1ccccc1NC(=O)C1(c2cccs2)CCOCC1 | -4 | -0.5%
CCOc1ccc(-c2nnc(SCC(=O)NCc3ccc(Cl)cc3)o2)cc1 | -27 | -9.6%
O=C(Nc1ccc(S(=O)(=O)N(Cc2ccccc2)c2ccccc2)cc1)c1ccc(F)cc1 | -2 | ?
CC(C)(C)C(=O)Nc1cccc(-c2cn3cccnc3n2)c1 | -9 | 3.9%
The results go on.
SMILES | TRPML1 inh | ClpP mod
CCCOC1(C(F)(F)F)NC(=O)N(c2ccc(Cl)cc2)C1=O (stereo not drawn) | 12 | 1.0%
CCCCN(CCCNC(=O)c1cc(Nc2ccc(OC)c(OC)c2)nc2ccccc12)c1ccccc1 | 23 | -2.8%
Cc1ccc2nc3c(cc(C(=O)NCc4ccco4)c(=N)n3C(C)C)c(=O)n2c1 | 24 | 3.8%
CCOc1ccc(CC(=O)NCc2ccc3c(c2)CCN3C(C)=O)cc1OCC | 2 | -3.7%
COc1cccc(C2CC(=O)Nc3c2c(=O)nc2c(C)cccn32)c1OC (stereo not drawn) | -7 | -8.6%
COC(=O)CC1Oc2ccccc2-n2cc(-c3ccc(Cl)cc3)nc21 (stereo not drawn) | 3 | -8.8%
CC1=C(C(=O)N2CCCCCC2)CC(CC(=O)NCCCN(C)C)C(=O)N1Cc1ccccc1 (stereo not drawn) | -11 | 0.2%
COc1cccc(CNC(=O)c2sc3ncccc3c2-n2c(C)ccc2C)c1OC | 89 | 3.7%
CCn1cc(C(=O)NCCc2ccc(Cl)cc2)c(=O)c2cc(S(=O)(=O)N3CCc4ccccc4C3)ccc21 | 54 | -14%
Cc1ccc(C)c(CSc2nc3ccncc3n2Cc2nc(-c3ccccc3Cl)oc2C)c1 | 37 | -16%
O=c1cc(-c2ccc(F)cc2)nc(SCc2nc(-c3ccccc3Cl)no2)[nH]1 | -9 | 1.2%
CC(C)(C)OC(=O)N1CCC(c2c(C(=O)N3CCN(Cc4ccccc4)CC3)cnn2-c2ccc(Cl)cc2)CC1 | -21 | -2.6%
COc1cccc(NC(=O)c2cnc(SCC(=O)N3CCOCC3)n(C)c2=O)c1 | -6 | -3.8%
COc1ccc(CNc2nc3ccccc3c3nc(-c4ccccc4)nn23)cc1 | 23 | 28µM*
COc1ccc(OC)c(CNS(=O)(=O)c2ccc3c(c2)CCCN3C(C)=O)c1 | 9 | -1.1%
CCCCCn1c(=O)[nH]c2cc(C(=O)NCc3ccc(C)cc3)ccc2c1=O | 2 | -5.9%
CCOc1ccc(/C=C/c2nc(C#N)c(NCc3ccccc3)o2)cc1 | 18 | 4.2%
CCCOc1cccc(C2c3c(oc4ccc(F)cc4c3=O)C(=O)N2CCCN2CCOCC2)c1 (stereo not drawn) | 4 | 0.7%
CC1=C(C(=O)Nc2cccnc2)C(c2ccccc2Cl)n2nc(-c3ccccc3)nc2N1 (stereo not drawn) | 7 | -2.7%
CSc1ccc(NC(=O)C2CCN(c3ncccn3)CC2)cc1 | -5 | -19%

Single records, from the list above. Screens in order: TRPML1 inh, ClpP mod
`COc1ccc(CNc2nc3ccccc3c3nc(-c4ccccc4)nn23)cc1` is entered as 23, 28µM*
`CC1=C(C(=O)Nc2cccnc2)C(c2ccccc2Cl)n2nc(-c3ccccc3)nc2N1` (stereo not drawn) is entered as 7, -2.7%
`CC(C)(C)OC(=O)N1CCC(c2c(C(=O)N3CCN(Cc4ccccc4)CC3)cnn2-c2ccc(Cl)cc2)CC1` is entered as -21, -2.6%
`O=c1cc(-c2ccc(F)cc2)nc(SCc2nc(-c3ccccc3Cl)no2)[nH]1` is entered as -9, 1.2%
`CCOc1ccc(/C=C/c2nc(C#N)c(NCc3ccccc3)o2)cc1` is entered as 18, 4.2%

New compounds follow:
SMILES | TRPML1 inh | ClpP mod
COc1ccc(NC(=O)C(=O)NCC2(c3ccccc3)CCCC2)c(OC)c1 | 3 | -1.5%
CN(Cc1ccccc1)C(=O)c1cn(C)c2ccc(S(=O)(=O)N(C)C3CCCCC3)cc2c1=O | 5 | 1.4%
COc1ccc(CCC(=O)NC2CC(=O)N(c3ccc(OC)cc3)C2)cc1 (stereo not drawn) | -26 | -1.1%
Cc1nc2ccn(Cc3cccnc3)c(=O)c2cc1C(=O)Nc1ccc(F)cc1F | -1 | ?
Cc1ccccc1C(=O)N(Cc1sccc1C)C1CCS(=O)(=O)C1 (stereo not drawn) | -20 | -1.2%
CCOC(=O)C1(C)CCCN1C(=O)c1cncc(Br)c1 (stereo not drawn) | -5 | 0.7%
COc1ccc(OC)c(S(=O)(=O)NCc2ccc3c(c2)CCN3C(=O)c2cccc(C)c2)c1 | -7 | -1.2%
Brc1ccc(-c2cc3c(N4CCN(c5ccccc5)CC4)nccn3n2)cc1 | 15 | 1.4%
COc1cccc(CNc2nc3cc(-c4csc5ccccc45)sc3c(=O)n2C)c1 | 1 | ?
COc1ccc(-c2cc(OC(=O)c3cccc(Cl)c3)c3c(C)oc(C)c3c(=O)c2)cc1 | 47 | -1.7%
O=C(CSc1c2c(nc3ccccc13)CCC2)Nc1ccc(F)cc1F | 6 | -0.5%
Cc1ccccc1NC(=O)c1c(C)oc2ccc(O)c(CN3CCN(C)CC3)c12 | -11 | -1.1%
CC(=O)N1CCC(N(Cc2ccco2)C(=O)Nc2ccc(Br)cc2F)CC1 | 18 | 0.5%
Cc1cccc(N2CCN(C(=O)C3CCC(CNS(=O)(=O)c4ccc(Br)s4)CC3)CC2)c1C (stereo not drawn) | -5 | 0.3%
CCc1nc2cccnc2n1-c1ccc(CC(=O)Nc2ccccc2Cl)cc1 | 1 | -3.4%
Fc1ccccc1N1CCN(c2nnc(C(F)(F)F)c3nnn(Cc4ccccc4)c23)CC1 | 25 | 7.9µM*
CC(C)CC(=O)OCc1cc(=O)n2nc(C3CCCCC3)sc2n1 | -26 | -1.5%
CCCc1ccc(-c2ccc(C(=O)Oc3ccc(Br)cc3)cc2)nc1 | -9 | -4.8%
CCN1CCN(C(c2ccc(OC)cc2)c2c(O)cc(C)n(Cc3ccco3)c2=O)CC1 (stereo not drawn) | -13 | 0.4%
CCCNC(=O)CCCN1C(=O)CCn2nc(-c3cccn3C)cc21 | 3 | -0.7%

Sorted by SMILES length (high to low): 6 of the compounds above.
SMILES | TRPML1 inh | ClpP mod
Fc1ccccc1N1CCN(c2nnc(C(F)(F)F)c3nnn(Cc4ccccc4)c23)CC1 | 25 | 7.9µM*
Cc1ccccc1NC(=O)c1c(C)oc2ccc(O)c(CN3CCN(C)CC3)c12 | -11 | -1.1%
CCc1nc2cccnc2n1-c1ccc(CC(=O)Nc2ccccc2Cl)cc1 | 1 | -3.4%
CCCc1ccc(-c2ccc(C(=O)Oc3ccc(Br)cc3)cc2)nc1 | -9 | -4.8%
O=C(CSc1c2c(nc3ccccc13)CCC2)Nc1ccc(F)cc1F | 6 | -0.5%
CCCNC(=O)CCCN1C(=O)CCn2nc(-c3cccn3C)cc21 | 3 | -0.7%

Some of the compounds tested; rates above refer to the full screens.
